KCNQ2 block: KCNQ2 channel blockers in CHO-K1 cells – cell-based, FluxOR thallium flux, B-score, primary screen (AID 2156). O88943. 20 min; stronger effect = lower value; only compounds with negative scores are shown here; some inactives read as strong as hits. B-score at 10 µM. actives 1.1% (n = 310,000);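 active = fluorescence ratio B-score at most minus 3 library SDs, with starting brightness B-score within 2 library SDs, cut at about -5.5 in these data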
Target sequence (O88943 whole entry, looked up): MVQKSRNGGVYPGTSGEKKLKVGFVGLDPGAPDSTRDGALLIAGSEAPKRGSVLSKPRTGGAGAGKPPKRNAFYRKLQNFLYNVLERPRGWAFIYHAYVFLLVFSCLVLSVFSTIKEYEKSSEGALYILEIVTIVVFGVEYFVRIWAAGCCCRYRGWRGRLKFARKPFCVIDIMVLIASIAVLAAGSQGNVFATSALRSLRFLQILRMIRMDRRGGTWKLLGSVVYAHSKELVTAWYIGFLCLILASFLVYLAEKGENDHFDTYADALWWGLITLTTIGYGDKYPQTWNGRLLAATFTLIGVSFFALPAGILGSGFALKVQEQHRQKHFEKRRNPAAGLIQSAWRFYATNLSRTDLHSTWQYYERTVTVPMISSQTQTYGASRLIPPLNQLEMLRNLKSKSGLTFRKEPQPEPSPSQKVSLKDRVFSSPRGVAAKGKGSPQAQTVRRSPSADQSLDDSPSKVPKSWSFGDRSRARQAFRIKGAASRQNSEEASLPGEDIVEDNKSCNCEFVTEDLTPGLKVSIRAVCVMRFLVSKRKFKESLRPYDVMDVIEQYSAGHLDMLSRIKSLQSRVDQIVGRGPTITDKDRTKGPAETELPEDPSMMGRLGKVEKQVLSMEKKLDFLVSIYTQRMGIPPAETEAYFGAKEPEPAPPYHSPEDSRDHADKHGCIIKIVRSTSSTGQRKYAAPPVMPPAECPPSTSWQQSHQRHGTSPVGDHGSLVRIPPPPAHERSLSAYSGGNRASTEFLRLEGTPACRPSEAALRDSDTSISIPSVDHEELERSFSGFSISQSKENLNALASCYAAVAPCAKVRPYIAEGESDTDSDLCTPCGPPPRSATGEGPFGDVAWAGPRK
KCNQ2 block baseline: recorded beside KCNQ2 block, whose call it bears; B-score; measured here: initial fluorescence intensity artifact check;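 brightness before thallium and not channel activity; 0 = typical well and far values either way flag optical interference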
* marks the source's active call; other numbers are inactive results; i = inactive. A portion of the library; the hit share may differ from the screen's.

SMILES	KCNQ2 block	KCNQ2 block baseline
O=C(COC(=O)c1ccc(NS(=O)(=O)c2ccc3c(c2)OCCO3)cc1)NCC1CCCO1 (stereo not given)	i	2.21
CCn1nnnc1-c1ccc(OC)c(S(=O)(=O)Nc2ccc(C(=O)OC)cc2)c1	i	-0.59
CC1CCCC(C)N1/N=C/c1ccc(C(=O)O)cc1 (stereo not given)	i	-1.65
Nc1ccc(C(=O)N2CCN(S(=O)(=O)/C=C/c3ccccc3)CC2)cc1[N+](=O)[O-]	i	1.14
CCOc1ccc(NS(=O)(=O)c2ccc(C(=O)NCC(c3ccc(OC)cc3)N3CCCC3)cc2)cc1 (stereo not given)	i	1.7
Cc1[nH]c(=O)[nH]c(=O)c1/C=N/NC(=O)CCNC(=O)OC(C)(C)C	i	-0.71
O=C(COc1ccccc1/C=C\c1[nH]c(=O)[nH]c(=O)c1[N+](=O)[O-])Nc1ccccc1	i	1.24
O=C(NNC(=O)c1ccc(Cl)s1)c1csc(N2CCOCC2)n1	i	-0.71
CCN1CCN(Cc2c(O)ccc3c2O/C(=C\C=C\c2ccccc2)C3=O)CC1	i	10.8
Cc1cc(C)cc(NC(=O)NC2CCN(CC(=O)Nc3cccc(Cl)c3C)CC2)c1	i	2.35
Cc1ccccc1C(=O)NCC(=O)c1ccccc1	i	-0.32
COc1ccc(Cl)cc1NS(=O)(=O)c1ccc(OC)c(OC)c1	i	1.11
O=C1CC(NN2CCCCC2)C(=O)N1c1ccccc1 (stereo not given)	i	-0.83
O=C(CCN1C(=O)c2ccccc2C1=O)Nc1ccc(-c2nc3ccccc3o2)cc1	i	-0.57
Cc1ccc(S(=O)(=O)N2CCN(S(=O)(=O)N3CCC(C)CC3)CC2)cc1C	i	1.69
O=C(COc1ccccc1)Nc1ccccc1Cl	i	2.89
O=C1C(Cl)=C(N2CCCCCC2)C(=O)N1c1ccc(Cl)cc1	i	-0.56
S=c1[nH]nc(-c2ccco2)n1/N=C/C=C/c1ccccc1	i	1.47
O=C(NCCCOc1cccc(CN2CCCCC2)c1)c1ccc(Cl)c(Cl)c1	i	-1.31
Cc1ccc(CNC(=O)CCc2nnc3ccc(NCCCN4CCCC4=O)nn23)cc1	i	0.77
CC1CCN(C2=C(NS(=O)(=O)c3ccc(Br)cc3)C(=O)c3ccccc3C2=O)CC1	i	0.96
CCOC(=O)C1CCCN(C(=O)c2cc3nc(-c4cccc(OC)c4)cc(C(F)(F)F)n3n2)C1 (stereo not given)	i	-0.1
Cc1ncc(CO)c(/C=N/NC(=O)c2cccc(S(=O)(=O)N3CCCC3)c2)c1O	i	2.58
CCc1ccc(S(=O)(=O)Nc2ccc(Cl)cn2)cc1	i	-0.68
O=C(COc1ccc(F)cc1)N1c2ccccc2CCc2ccccc21	i	0.6
COc1cc(C(F)(F)F)nc2ccc(C#CCOC(=O)Nc3ccccc3)cc12	i	0.87
Cc1ccc(C(C#N)N2CCOCC2)cc1 (stereo not given)	i	-0.86
COc1ccc(C(=O)N2CCCC(c3nc(-c4cc(OC)c(OC)c(OC)c4)no3)C2)cc1 (stereo not given)	i	-1.01
COc1ccc2[nH]c(C)c(C(=O)CN(C)C)c2c1	i	-0.19
COc1ccc(C(=O)Nc2ccc(N3CCCCC3)cc2)cc1Br	i	0.94
Cn1c(-c2ccccc2)cnc1SCC(N)=O	i	2.09
Cc1cn(C(=O)c2ccccc2)c(=S)n1-c1ccc(Br)cc1	i	-0.76
Cc1ccc(NS(=O)(=O)c2c(C)[nH]c(C)c2C(=O)N2CCCCC2)cc1Cl	i	0.48
COc1ccc(Nc2nc(-c3ccccc3)nc3ccccc23)cc1	i	0.56
COc1cc(OC)cc(-n2nnnc2SCC(=O)NCc2ccc3c(c2)OCO3)c1	i	1.57
O=C(c1ccc(-c2ccccc2)cc1)N1CCN(c2ccccc2F)CC1	i	-0.75
Fc1cccc(Cl)c1Cn1ncc2ccccc21	i	0.33
O=C(N/N=C/c1ccccc1Cl)c1[nH]c2ccc(Br)cc2c1-c1ccccc1	i	5.83
CS(=O)(=O)N1CCC(Oc2ccccc2C(=O)NCCCc2cccnc2)CC1	i	1.26
CC1(C(=O)NC(=S)N(CCC#N)Cc2cccnc2)CC1(Cl)Cl (stereo not given)	i	2.09
CN(C)c1ccc(C2N(c3ccc(Cl)cc3)C(=O)C3CCCN32)cc1 (stereo not given)	i	-0.02
Cc1cc(C)c2c(-n3cccc3)c(C(=O)NNS(=O)(=O)c3ccc(F)cc3)sc2n1	i	1.12
O=C(N/N=C/c1ccc(N2CCOCC2)s1)c1ccc(NS(=O)(=O)c2cccs2)cc1	i	-0.1
CC(=O)c1cc(F)c(N2CCN(C(=O)C(C)(C)C)CC2)cc1C	i	-0.59
Cc1nc(NC(=O)c2ccccc2)sc1-c1csc(NCc2ccccc2)n1	i	-0.29
COc1cc(CN(C)C)cc(C=O)c1O	i	0.74
CCC(C)C(NC(=O)OC(C)(C)C)C(=O)NCc1ccco1 (stereo not given)	i	-0.02
Cc1ccc([N+](=O)[O-])cc1NC(=O)Nc1onc(C)c1C	i	0.02
CCCN(CCC)C(=O)C1c2ccccc2Oc2ccccc21	i	-0.06
Cc1ccc(C(=O)Cn2nnc3c(sc4nc5c(c(-c6ccccc6)c43)CCC5)c2=O)cc1	i	0.31
COc1cccc(-c2cc(C(F)(F)F)n3ncc(C(=O)NCC4CCCO4)c3n2)c1 (stereo not given)	i	-3.39
O=C(CCNS(=O)(=O)c1ccc(Br)cc1)NCc1cccs1	i	0.01
O=C(O)c1ccc(COc2c(F)c(F)cc(F)c2F)cc1	-9.04*	-1.11*
C=CCNc1nc2c(c(=O)n(C)c(=O)n2C)n1Cc1ccc(F)cc1	i	0.21
CCCn1c(NC(=O)C23CC4CC(CC(O)(C4)C2)C3)nc2ccccc21	i	0.85
CCOc1ccc2c(c1)C(C)=CC(C)(C)N2C(=O)Nc1ccccc1F	i	5.22
Cc1cccc(-n2c(Cc3ccccc3)n[nH]c2=S)c1	i	2.7
CC1(C(=O)NC2CCCC2)CCC(=O)N1CCC1=CCCCC1 (stereo not given)	i	-0.37
CC(=O)N(Cc1cc2cc(C)ccc2[nH]c1=O)c1cccc(C)c1C	i	1.28
OC(COc1ccccc1)CN1CCOCC1 (stereo not given)	i	-0.1
The list continues.
SMILES	KCNQ2 block	KCNQ2 block baseline
O=C(/C=C/c1ccccc1)NC(=S)NNC(=O)c1ccco1	i	-0.05
Cc1ccc(Cn2c(C3CCCN3c3nc(-c4ccc(F)cc4)cs3)nc3cc(C(F)(F)F)ccc32)cc1 (stereo not given)	i	0.58
O=C(OC(C(=O)NCC1CCCO1)c1ccc(F)cc1)c1cccs1 (stereo not given)	i	2.19
COc1ccc(S(=O)(=O)N2CCC(C(=O)c3ccc4c(c3)OCCO4)CC2)cc1	i	1.77
O=C(NCc1cccnc1)Nc1ccc(F)cc1F	i	0.41
CN(C)C(=O)CSc1nc(-c2ccccc2)nc2c1CCCC2	i	-0.01
COc1ccc(/C=C(\NC(=O)c2ccco2)C(=O)NCc2ccco2)cc1	i	-0.07
C=CCN(c1ccccc1Cl)S(=O)(=O)c1cc(C(=O)N2CCCC2)ccc1Cl	i	1.99
O=C(COC(=O)c1ccc(O)cc1)Nc1cc(C(F)(F)F)ccc1Cl	i	-0.33
CCN(CC)c1cccc(OCC(=O)N(C)CCC#N)c1	i	0.57
Cc1ccc(NC(=O)C2CCN(C(=O)NC3CCCCC3)CC2)cc1Cl	i	-0.22
O=C1CSC(c2ccc3c(c2)OCO3)N1c1ccc(Oc2ccccc2)cc1 (stereo not given)	i	-0.01
O=C(Nc1ccc(F)cc1F)NC1CC(=O)N(Cc2ccccc2)C1 (stereo not given)	i	-0.03
CCCCC(=O)N1CCN(c2ccc(OC)cc2[N+](=O)[O-])CC1	i	0.51
CCOC(=O)N/N=C/c1ccc(F)cc1	i	-0.4
CSc1nnc(-c2ccccc2)c(-c2ccccc2)n1	i	-0.18
COc1ccc(-c2cc(=O)[nH]c(=O)[nH]2)cc1	i	0.23
O=C(CCCN1C(=O)c2cccc3cccc(c23)C1=O)Nc1ccon1	i	1.19
COP(=O)(CN(Cc1ccccc1)C(=S)Nc1c(C)cccc1C)OC	i	-1.62
COc1ccc(CNC(=O)CN2C(=O)CSc3ccc(S(=O)(=O)N4CCCCC4)cc32)cc1	i	-1.55

7 entries picked at random from the list so far:
SMILES	KCNQ2 block	KCNQ2 block baseline
O=C(NNC(=O)c1ccc(Cl)s1)c1csc(N2CCOCC2)n1	i	-0.71
CCc1ccc(S(=O)(=O)Nc2ccc(Cl)cn2)cc1	i	-0.68
CC1CCN(C2=C(NS(=O)(=O)c3ccc(Br)cc3)C(=O)c3ccccc3C2=O)CC1	i	0.96
O=C(c1ccc(-c2ccccc2)cc1)N1CCN(c2ccccc2F)CC1	i	-0.75
Cc1[nH]c(=O)[nH]c(=O)c1/C=N/NC(=O)CCNC(=O)OC(C)(C)C	i	-0.71
OC(COc1ccccc1)CN1CCOCC1 (stereo not given)	i	-0.1
COP(=O)(CN(Cc1ccccc1)C(=S)Nc1c(C)cccc1C)OC	i	-1.62

(continued)
SMILES	KCNQ2 block	KCNQ2 block baseline
CC(=O)c1ccc(NS(=O)(=O)c2ccc(C(C)(C)C)cc2)cc1	i	0.83
C/C(=N\N1CCN(Cc2ccccc2Cl)CC1)c1ccc(F)cc1	i	-0.83
O=C(Nc1ccccc1)c1c2c(nc3ccccc13)CCCC2	-8.18*	1.58*
COc1ccc(-n2c(=O)c3ccccc3c3ccccc3c2=O)cc1	i	0.49
CC(C)n1nnnc1SCC(=O)NCCc1ccccc1	i	3.2
CCN(C1CCCCC1)S(=O)(=O)c1ccc(S(=O)(=O)NCCc2ccncc2)cc1	i	0.03
CCCc1cc(C(=O)N2CCN(c3ccc(C(F)(F)F)cn3)CC2)sc1C	i	-0.08
COC(=O)C1C(O)C(C)C(O)C(C)(O)/C=C\C=C(/C)C(=O)Nc2c(C)c(OC(C)=O)c3c(c2O)C(=O)C(C)=C2OCOC(=C23)/C(C)=C/C(C)(O)C(O)C(C)C1O (stereo not given)	i	1.47
CCNCC(=O)Nc1ccc(N2CCOCC2)cc1	i	-0.31
O=C(OCC(=O)N1CCOCC1)c1c(Cl)ccc(Cl)c1Cl	i	0.3
Nc1nonc1-n1nnc(C(=O)N/N=C/c2ccccc2Cl)c1COc1ccc(F)cc1	i	-0.52
Cc1cc2c(cc(C(=O)OCC(=O)NCc3cccs3)n2C(C)C)o1	i	-0.41
C#CCOCCOCCOCCNc1nc(N2CCN(C(=O)C(CCC(=O)O)n3cc(C(N)CC(C)C)nn3)CC2)nc(N2CCN(C(=O)C(Cc3cc4ccccc4[nH]3)n3cc(C(N)Cc4ccc(O)cc4)nn3)CC2)n1 (stereo not given)	i	2.46
Cc1ccc(OCCn2nc3ccccc3n2)c(C)c1	i	0.05
O=C(NCCCNC(=O)c1ccccc1Cl)c1cnccn1	i	-1.85
Cc1ccc(S(=O)(=O)N2CCN(C(=O)c3c(-c4ccccc4)noc3C)CC2)c(C)c1	i	0.77
CCC(C(=O)Nc1cc(C)cc(C)n1)c1ccccc1 (stereo not given)	i	0.55
Cc1cc(=O)oc2cc(OCC(=O)N3CCN(C(=O)C4COc5ccccc5O4)CC3)c(Cl)cc12 (stereo not given)	i	-1.19
O=C(Cn1c2[n+](c3ccc(C(F)(F)F)cc31)CCCCC2)c1cccc([N+](=O)[O-])c1	i	0.48
COc1ccc(CCN(C)C(=O)c2c(C)nn(-c3ccccc3)c2C)cc1OC	i	-0.52
Fc1ccc(Nc2nc(-c3ccncc3)nc3ccccc23)cc1F	i	-0.56
CCOC(=O)COc1ncn(-c2ccccc2)n1	i	-0.27
CC1CCN(S(=O)(=O)c2cn(CC(=O)Nc3cccc(C#N)c3)cn2)CC1	i	0.04
O=C(NCc1ccc(F)cc1)C(=O)NCC1OCCN1C(=O)c1cccs1 (stereo not given)	i	0.51
COC(=O)Cc1ccc(NC(=O)c2ccc(C)c(C)c2)cc1	i	0.37
COc1ccccc1CCNC(=O)COc1cccc2c1OC(C)(C)C2	i	1.42
CCOC(=O)c1c(C)nsc1NC(=O)C1CCCCC1	i	-0.75
O=S(=O)(NCC(c1ccc2c(c1)OCO2)N1CCOCC1)c1ccc(F)cc1 (stereo not given)	i	0.64
Cc1ccc(OCC(=O)Nc2ccc(S(=O)(=O)Nc3cc(C)nc(C)n3)cc2)cc1	i	-1.44
COc1ccc(Cl)cc1NC(=O)CN1CCN(Cc2ccccc2)CC1	i	-0.54
O=C(CNC(=O)C(c1ccccc1)c1ccccc1)OCC(=O)c1cccs1	i	1.23
COc1cccc(CNC(=O)CCC2CCCN(C(=O)c3csc(C(C)C)n3)C2)c1 (stereo not given)	i	0.89
CC(C)(C)C(=O)NC(=S)Nc1ccc(Cl)c(C(=O)O)c1	i	2.88
O=C(COc1ccccc1Cl)Nc1ccc(C(=O)O)cc1NC(=O)COc1ccccc1Cl	i	0.2
COc1cccc(NC(=O)Nc2cnccn2)c1	i	0.47
COc1ccccc1CN1CCC(CNS(=O)(=O)c2cc(-c3cc(C)no3)ccc2OC)CC1	i	-0.88
CCCCNC(=O)CSc1nccn1Cc1ccccc1	i	2.1
Cc1cc(C)cc(NC(=O)CN2CCN(c3ccccc3)CC2)c1	i	-0.84

For convenience, some entries already given.
SMILES	KCNQ2 block	KCNQ2 block baseline
O=C(COC(=O)c1ccc(NS(=O)(=O)c2ccc3c(c2)OCCO3)cc1)NCC1CCCO1 (stereo not given)	i	2.21
CCn1nnnc1-c1ccc(OC)c(S(=O)(=O)Nc2ccc(C(=O)OC)cc2)c1	i	-0.59
CC1CCCC(C)N1/N=C/c1ccc(C(=O)O)cc1 (stereo not given)	i	-1.65
Nc1ccc(C(=O)N2CCN(S(=O)(=O)/C=C/c3ccccc3)CC2)cc1[N+](=O)[O-]	i	1.14
